rRNA inh HTS – inhibits bacterial ribosomal RNA function over humanized ribosomes | E. coli WT GFP vs humanized-ribosome RFP mutants, fluorescence, 24 h; hits give low values; DMSO median 0, no signal -100 | GFP signal change (wild-type ribosome), % (concentration not given with the values) | actives 1.6% (n = 350,000) | AID 720706;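 active means significant combined selectivity score with lowered wild-type GFP, culture density cut under 30%, mutant RFP and density less affected; inactive means any of these conditions unmet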; further: one replicate is shown; some compounds called inactive have numbers as strong as hits
AF4-AF9 inh – blocks AF4 peptide binding to human AF9 | P42568 | AlphaScreen, biotin-AF4 peptide binding to FLAG-AF9 | inhibition, % at 10 µM | actives 0.47% (n = 350,000) | AID 651704;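 active means every replicate reaching a set inhibition limit, whatever the replicate mean, cut at about 25% in these data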;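 further: 0% = plate neutral control median and 100% = total signal loss; the record names both 10 and 1 µM as test concentration; the first replicate is given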
Target sequence (P42568 whole entry, looked up): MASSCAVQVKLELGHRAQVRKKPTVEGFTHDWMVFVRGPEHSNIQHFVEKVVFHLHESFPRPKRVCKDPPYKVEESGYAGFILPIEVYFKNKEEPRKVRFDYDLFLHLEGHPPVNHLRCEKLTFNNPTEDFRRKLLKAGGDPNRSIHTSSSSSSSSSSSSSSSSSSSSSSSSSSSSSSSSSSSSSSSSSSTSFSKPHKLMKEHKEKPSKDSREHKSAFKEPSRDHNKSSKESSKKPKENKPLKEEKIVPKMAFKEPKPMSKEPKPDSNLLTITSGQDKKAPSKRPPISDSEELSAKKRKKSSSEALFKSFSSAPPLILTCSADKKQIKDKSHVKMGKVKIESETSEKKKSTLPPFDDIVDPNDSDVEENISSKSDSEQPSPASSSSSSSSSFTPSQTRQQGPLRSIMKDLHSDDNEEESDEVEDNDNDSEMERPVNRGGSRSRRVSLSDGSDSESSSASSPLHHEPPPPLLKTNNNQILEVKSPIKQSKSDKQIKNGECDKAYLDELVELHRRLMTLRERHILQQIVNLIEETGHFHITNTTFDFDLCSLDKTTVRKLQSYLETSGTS
FGF22 binding – binders of recombinant human FGF22 by thermal shift. actives 1.5% (n = 340,000). AID 651658. SYPRO orange fluorescence; percent of sucrose octasulfate shift, DMSO zero. Q9HCT0. calls only at 9.99 µM;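 active means melting point raised past a set limit in the mean and every replicate; three in four hits are not shown here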
Target sequence (Q9HCT0 whole entry, looked up): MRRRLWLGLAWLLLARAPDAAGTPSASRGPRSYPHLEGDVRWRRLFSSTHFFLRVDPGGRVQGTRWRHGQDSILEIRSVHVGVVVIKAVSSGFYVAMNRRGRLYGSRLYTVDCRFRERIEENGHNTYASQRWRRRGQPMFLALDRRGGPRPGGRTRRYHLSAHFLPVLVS
rRNA inh HTS OD600 – further read-out of rRNA inh HTS, marked with its call; OD600 change, %; measured here: OD600 growth;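 optical density of the mix in the first replicate; 0 = DMSO median and -100 = no signal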
rRNA inh HTS RFP – recorded beside rRNA inh HTS, whose call it bears; RFP signal change, %; measured here: RFP humanized mutant strains;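 first replicate; 0 = DMSO median and -100 = no signal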
* = called active by the depositor; i = inactive; & = joins results of further samples.

SMILES	rRNA inh HTS	rRNA inh HTS OD600	rRNA inh HTS RFP	AF4-AF9 inh	FGF22 binding
O=C(C1CC1)N1[C@H](CO)[C@@H]2c3ccccc3N(S(=O)(=O)c3ccc(F)cc3)C[C@@H]21	-2	-4	-2.0	2.2	i
COc1ccc(NC(=O)N(C)C[C@@H]2OCCCC[C@@H](C)Oc3ccc(NC(=O)CCC(F)(F)F)cc3C(=O)N([C@H](C)CO)C[C@@H]2C)cc1	3	2	-4.8	-1.6	i
C[C@H](CO)N1C[C@H](C)[C@H](CN(C)S(=O)(=O)c2cn(C)cn2)Oc2ccc(NS(=O)(=O)c3ccc(Cl)cc3)cc2CC1=O	-7	-4	2.0	-1.2	i
Fc1cc(Cl)cc2ccc(-c3ccccc3)nc12	-1	-11	-0.8	-2.0	i
COc1cccc(C#Cc2ccc([C@H]3[C@H](C#N)N(C(=O)C4CCC4)[C@H]3CO)cc2)c1	2	1	0.1	-4.2	i
CC1COCC(C)N1C(=O)c1cccnc1 (stereo not given)	2	9	-0.9	-2.8	i
CCCNC(=O)N1CC2(CCN(CC3CCOCC3)CC2)c2c(n(C)c3cc(OC)ccc23)[C@@H]1CO	4	5	2.9	0.0	i
COc1ccc(CN(C)C[C@H]2Oc3ccc(NS(=O)(=O)c4c(C)noc4C)cc3CC(=O)N([C@@H](C)CO)C[C@@H]2C)cc1	1	-2	0.6	-1.6	i
COc1ccc(CCN2CC(C(=O)Nc3cc(S(C)(=O)=O)ccc3Cl)CC2=O)cc1OC (stereo not given)	12	14	0.9	-2.1	i
CC1(C(=O)NS(=O)(=O)C2CC2)CCCN(C(=O)Cc2ccc(F)cc2)C1 (stereo not given)	1	-10	-0.1	1.3	i
C[C@@H]1CN([C@@H](C)CO)C(=O)c2cc(C#Cc3cccnc3)cnc2O[C@@H]1CN(C)Cc1ccccc1	3	6	-1.1	-2.3	i
C[C@@H](NC(=O)[C@@H]1[C@@H](CO)[C@@H]2Cn3c(ccc(-c4cccnc4)c3=O)[C@@H]2N1C)c1ccccc1	0	0	1.3	0.8	i
CC(C)C#Cc1ccc([C@@H]2[C@H](CO)N3CCCCN(S(=O)(=O)Cc4ccccc4)C[C@@H]23)cc1	-42*	-32*	-1.5*	3.6	i
COc1ccc(S(=O)(=O)N(C)C[C@H]2Oc3c(NC(=O)c4cnccn4)cccc3C(=O)N([C@@H](C)CO)C[C@H]2C)cc1	-3	-7	-0.2	0.5	i
COC(=O)C[C@H]1CC[C@H](NS(=O)(=O)c2ccc(OC)cc2)[C@H](CO)O1	4	6	-0.1	-3.2	i
C[C@H]1CN([C@@H](C)CO)C(=O)c2cccc(NC(=O)c3ccncc3)c2O[C@H]1CN(C)S(=O)(=O)c1ccc(F)cc1	2	1	-1.8	-3.3	i
CCCn1c(SC(C)C(=O)NC2CCCC(C)C2C)n[nH]c1=O (stereo not given)	9	20	0.5	-1.2	i
Cc1noc(C)c1S(=O)(=O)Nc1ccc2c(c1)C(=O)N([C@H](C)CO)C[C@H](C)[C@@H](CN(C)Cc1ccc3c(c1)OCO3)OCCCC[C@@H](C)O2	1	8	0.2	0.2	i
O=C(c1cccc(Cl)c1)N1CCC(=O)N([C@H](COCc2cccc(Cl)c2)Cc2ccccc2)CC1	-3	-12	1.7	0.3	i
Cc1nnc(SC(C)C(=O)NC2CCCCC2)[nH]c1=O (stereo not given)	7	18	-1.1	-30	i
COCCCNC(=O)C[C@H]1C[C@H](C(=O)N2CCCCC2)[C@@]2(CCc3ccccc3)c3[nH]c4cc(-c5ccco5)ccc4c3CCN2C1=O	20	16	39	7.7	i
O=C(Cc1ccccn1)N[C@H]1CC[C@@H](CCn2cc(-c3ccccc3)nn2)O[C@H]1CO	-1	-2	-3.8	1.5	i
CN(C)CC(=O)N1CCCCN2[C@H](CO)[C@@H](c3ccc(-c4cccnc4)cc3)[C@H]2C1	4	5	-0.6	2.0	i
C=CCNc1nc2cc(-c3ccc(C(=O)N4CCOCC4)cc3)sc2c(=O)n1C	0	9	1.3	1.3	i
CCS(=O)(=O)N1CCC2(CC1)CN(S(=O)(=O)c1ccc(C)cc1)[C@@H](CO)c1[nH]c3cc(OC)ccc3c12	-5	-5	-0.5	4.4	i

Molecules from the list above that contain a Cl atom (4):
SMILES	rRNA inh HTS	rRNA inh HTS OD600	rRNA inh HTS RFP	AF4-AF9 inh	FGF22 binding
C[C@H](CO)N1C[C@H](C)[C@H](CN(C)S(=O)(=O)c2cn(C)cn2)Oc2ccc(NS(=O)(=O)c3ccc(Cl)cc3)cc2CC1=O	-7	-4	2.0	-1.2	i
Fc1cc(Cl)cc2ccc(-c3ccccc3)nc12	-1	-11	-0.8	-2.0	i
COc1ccc(CCN2CC(C(=O)Nc3cc(S(C)(=O)=O)ccc3Cl)CC2=O)cc1OC (stereo not given)	12	14	0.9	-2.1	i
O=C(c1cccc(Cl)c1)N1CCC(=O)N([C@H](COCc2cccc(Cl)c2)Cc2ccccc2)CC1	-3	-12	1.7	0.3	i

The results go on:
SMILES	rRNA inh HTS	rRNA inh HTS OD600	rRNA inh HTS RFP	AF4-AF9 inh	FGF22 binding
CC(C)c1ccc(Oc2cccc3c2S(=O)(=O)N(C2CCCC2)CC(COCc2ccccc2)O3)cc1 (stereo not given)	4	17	4.7	-1.4	i
CC(=O)N(C)C[C@H]1Oc2cc(-c3cncnc3)ccc2S(=O)(=O)N([C@H](C)CO)C[C@H]1C	2	7	-3.2	-1.6	i
C[C@@H]1CN([C@H](C)CO)S(=O)(=O)c2ccc(-c3ccc(F)cc3)cc2O[C@@H]1CN(C)C(=O)c1ccccc1F	-6	-13	0.8	2.9	i
C[C@@H]1CN([C@H](C)CO)C(=O)c2cc(-c3cccc(C#N)c3)cnc2O[C@@H]1CN(C)C(=O)C1CCCCC1	-2	-2	-0.2	0.5	i
C=C1CC2(CC(c3ccccc3)OC(c3ccccc3)C2)OC1=O (stereo not given)	-8	-21	-6.3	0.1	i
C[C@@H]1CN([C@@H](C)CO)C(=O)c2cccc(NC(=O)c3nc4ccccc4s3)c2O[C@@H]1CN(C)Cc1ccc(C(=O)O)cc1	-5	-11	-2.5	-1.7	i
C[C@@H]1CN([C@H](C)CO)S(=O)(=O)c2ccc(/C=C/c3ccccc3)cc2O[C@H]1CN(C)Cc1cncnc1	-30	-44	34	22	i
CO[C@H](CN(C)S(=O)(=O)c1ccc(C)cc1)[C@H](C)CN(C(=O)Nc1ccccc1F)[C@@H](C)CO	-3	0	1.6	-1.1	i
COC(=O)[C@]12CCCCC=C1N(Cc1ccc3c(c1)OCO3)C(=O)[C@H](CC(=O)N1CCSCC1)C2	-14	-8	6.1	6.3	i
C[C@@H]1CCCCO[C@@H](CN(C)S(=O)(=O)c2cn(C)cn2)[C@H](C)CN([C@H](C)CO)C(=O)c2cc(NS(=O)(=O)c3ccc(Cl)cc3)ccc2O1	1	-3	-1.1	-11	i
CNC[C@@H]1Oc2ccc(NC(=O)Nc3ccc4c(c3)OCO4)cc2CC(=O)N([C@H](C)CO)C[C@@H]1C	8	13	-0.9	3.8	i
COC(=O)C[C@H]1CC[C@@H]2[C@H](COC[C@@H](O)CN2S(=O)(=O)c2cn(C)cn2)O1	-1	2	-0.3	1.0	i
CNC[C@H]1Oc2c(cccc2N(C)C)C(=O)N([C@H](C)CO)C[C@@H]1C	3	14	0.2	-5.8	i
COc1ccc(NC(=O)Nc2cccc3c2O[C@H](CN(C)C(=O)Nc2ccc(OC)cc2)[C@@H](C)CN([C@@H](C)CO)C3=O)cc1	-4	5	-2.5	-2.6	i
COc1ccc(NC(=O)N(C)C[C@H]2OCCCC[C@H](C)Oc3ccc(NS(=O)(=O)c4cn(C)cn4)cc3C(=O)N([C@@H](C)CO)C[C@H]2C)cc1	4	6	-1.8	-0.9	i
COc1cccc(S(=O)(=O)N2CCCCN3[C@H](C2)[C@H](c2ccc(-c4cccnc4)cc2)[C@@H]3CO)c1	-26	-31	-1.6	-1.3	i
CC(=O)Nc1ccc(-c2cc(C(=O)O)c3cc4ccccc4cc3n2)cc1	-3	10	1.7	-5.1	i
CN1C(=O)c2cc(NC(=O)c3ccc(F)cc3)ccc2OC[C@@H]2O[C@H](CC(=O)NC3CCC3)CC[C@@H]21	-3	-7	0.3	-0.4	i
CCCN(C)C[C@H]1OCCCC[C@H](C)Oc2ccc(NS(=O)(=O)c3ccc(F)cc3)cc2C(=O)N([C@@H](C)CO)C[C@@H]1C	1	-5	3.0	11	i
C[C@H](CO)N1C[C@H](C)[C@H](CN(C)Cc2ccc(C(F)(F)F)cc2)OCCCC[C@H](C)Oc2ccc(NC(=O)CCCN(C)C)cc2C1=O	-5	-7	-0.7	14	i
Cc1ccc(F)c(S(=O)(=O)NC(=O)C2(C)CCN2C(=O)Cc2cccs2)c1 (stereo not given)	6	8	-13	-7.0	i
C[C@@H]1CN([C@@H](C)CO)S(=O)(=O)c2ccc(C#Cc3ccccc3F)cc2O[C@H]1CN(C)C(=O)c1ccc2c(c1)OCO2	0	1	2.3	-5.1	i
COCC1CCN(C(=O)c2ccc3oc(CCc4ccccc4)nc3c2)C1 (stereo not given)	-6	-5	-6.6	-1.6	i
CCCNC(=O)[C@@H]1[C@@H](CO)[C@@H]2Cn3c(ccc(-c4ccccc4OC)c3=O)[C@H]1N2C(=O)NCCC	2	2	-5.3	-1.8	i
COCCN(C[C@@H]1N[C@@H](CO)[C@H]1c1ccc(-c2ccc(F)cc2)cc1)C(C)=O	-1	1	0.4	6.5	i

(more compounds)
SMILES	rRNA inh HTS	rRNA inh HTS OD600	rRNA inh HTS RFP	AF4-AF9 inh	FGF22 binding
CN(C)CC(=O)Nc1ccc2c(c1)[C@@H]1C[C@H](CC(=O)NCCN3CCCCC3)O[C@H](CO)[C@@H]1O2	2	7	-1.8	0.7	i
C[C@H](CO)N1C[C@H](C)[C@@H](CN(C)S(=O)(=O)c2ccc(Cl)cc2)Oc2c(NS(=O)(=O)c3cccs3)cccc2C1=O	-3	1	0.9	2.0	i
C[C@@H]1CN([C@H](C)CO)S(=O)(=O)c2ccc(/C=C/c3ccccc3)cc2O[C@@H]1CN(C)C(=O)c1cccnc1	-5	-5	-3.3	10	i
CC(C)OC(=O)N(C)C[C@H]1OCc2cn(nn2)CCCC(=O)N([C@@H](C)CO)C[C@@H]1C	-2&25	-4&16	-1.0&1.6	0.4&-5.7&-0.7	i
O=C(CN1CCCc2ccccc21)Nc1cccc(S(=O)(=O)N2CCCC2)c1	-10	-12	11	1.3	i
O=C(c1cccnc1)N1C[C@H]2[C@@H](c3ccccc31)[C@H](CO)N2Cc1ccc2c(c1)OCO2	5	5	1.0	0.4	i
C[C@@H]1CN([C@H](C)CO)S(=O)(=O)c2ccc(C3=CCCCC3)cc2O[C@H]1CN(C)C(=O)Cc1cccnc1	-16&1	-20&-7	5.2&-2.1	4.7&2.8&9.5	i
C/C=C/c1ccccc1[C@@H]1[C@@H](CO)N(C(C)=O)[C@H]1C#N	-1	0	1.8	-1.8	i
O=C(O)c1ccc(CN2C[C@@H](CO)O[C@@H](n3cnc4c(NCc5ccco5)ncnc43)C2)cc1	10	14	-3.3	-2.3	i
COc1ccc(N2CCN(c3cc(C(=O)NC4CCCCC4)ncn3)CC2)cc1OC	-5	-11	-2.4	8.6	i
COc1ccc(S(=O)(=O)Nc2ccc3c(c2)C(=O)N([C@H](C)CO)C[C@@H](C)[C@H](CN(C)C(=O)NC(C)C)OCCCC[C@@H](C)O3)cc1	0	1	-0.2	3.2	i
CC(C)C[C@H]1COc2cccc(F)c2S(=O)(=O)N1	1&1	3&5	-3.2&6.3	0.6&0.0	i
CCOC(=O)C1=CCN(S(=O)(=O)c2ccc(C)cc2)C1c1cccs1 (stereo not given)	-11	-42	-9.6	-1.2	i
O=C(C[C@@H]1CC[C@H](NC(=O)C2CCC2)[C@H](CO)O1)Nc1nccs1	2	0	-1.1	-1.5	i
CNc1nc(=O)n(C2CCCO2)cc1C (stereo not given)	12	21	1.5	-1.4	i
COc1ccc(NC(=O)Nc2ccc3c(c2)C(=O)N([C@H](C)CO)C[C@H](C)[C@H](CN(C)C)OCCCC[C@@H](C)O3)cc1	-1&17	7&6	-3.2&1.4	-7.4&1.7	i
CC1(C(=O)NS(=O)(=O)C2CC2)CCCN(C(=O)/C=C/c2ccccc2)C1 (stereo not given)	9	8	-2.7	-3.1	i
C[C@H](CO)N1C[C@H](C)[C@@H](CN(C)C(=O)C2CCC2)Oc2cc(-c3ccc(C(=O)N(C)C)cc3)ccc2S1(=O)=O	-5	-6	-2.3	-1.6	i
CCCNC(=O)N1C[C@H](C)[C@@H](OC)CN(C)C(=O)c2ccc(NC(C)=O)cc2OC[C@H]1C	3	3	-2.3	-2.4	i

An excerpt from above in order of the rRNA inh HTS OD600 value, rising:
SMILES	rRNA inh HTS	rRNA inh HTS OD600	rRNA inh HTS RFP	AF4-AF9 inh	FGF22 binding
CCCNC(=O)N1C[C@H](C)[C@@H](OC)CN(C)C(=O)c2ccc(NC(C)=O)cc2OC[C@H]1C	3	3	-2.3	-2.4	i
CN(C)CC(=O)Nc1ccc2c(c1)[C@@H]1C[C@H](CC(=O)NCCN3CCCCC3)O[C@H](CO)[C@@H]1O2	2	7	-1.8	0.7	i
CNc1nc(=O)n(C2CCCO2)cc1C (stereo not given)	12	21	1.5	-1.4	i

Assay outcomes deposited in PubChem by Broad Institute.

A portion of the library; count on the stated rates, not on these rows.
